From PubChem
Mtb growth = M. tuberculosis H37Rv growth inhibitors, H37Rv strain (AID 1626). M. tuberculosis H37Rv growth inhibition; higher % means a stronger effect. one-dose inhibition, % at 10 µM; IC50 in µM for titrated hits. actives 0.95% (n = 220,000);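 active = confirmed in a dose series; inconclusive = inhibition above 80% but not taken into the dose series; inactive = below 80% or under 30% at every dose of the series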;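 note: bacteria incubated seven days before Alamar blue readout; 0% = bacteria only wells and 100% = bacteria with antibiotic wells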
Mtb bLac sens = beta-lactam sensitization of Mtb H37Rv; M. tuberculosis H37Rv growth with meropenem, percent inhibition; hits of this screen are not shown here; inhibition, % at 25 µM; actives 0.27% (n = 330,000);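 active = about 74% or more and at least 40 points above the plate without the antibiotic, then above 30% in a dose series; inconclusive = first-round hits that could not be retested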;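 note: growth measured after seven days incubation then overnight dye step; 0% = bacteria only wells and 100% = bacteria with antibiotic; twin plates without the antibiotic show which effects depend on it; some results filed as inactive read as strong as hits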
Arbovirus inh = blocks arbovirus infection; arbovirus infection cell-based antiviral screen; inhibition, % at 10 µM; actives 0.37% (n = 200,000);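 active = inhibition from about 30%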;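 note: bluetongue infection of BSR cells; cell survival read as ATP light after 72 h; 0% = infected wells without compound and 100% = uninfected wells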
YopH inh = inhibitors of Yersinia enterocolitica YopH tyrosine phosphatase. AID 898. inhibition, %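 (about 10 µM by stock and volumes)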. fluorescence Ex485/Em525. actives 0.16% (n = 140,000);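 active = inhibition of 50% or more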;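 note: controls were vehicle for no effect and minimum signal wells for full effect; inactives centre near -20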
RecA splice inh = inhibitors of M. tuberculosis RecA intein splicing. AID 2221. inhibition, %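 (about 9 µM by stock and volumes)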. P9WHJ3. cell-free RecA intein splicing, fluorescence. actives 0.75% (n = 290,000); in the data active = inhibition above about 30%; inconclusive = no clear call, values can overlap the other calls;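 note: 0% = vehicle wells and 100% = reference inhibitor control wells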
Target sequence (P9WHJ3 whole entry, looked up, canonical isoform): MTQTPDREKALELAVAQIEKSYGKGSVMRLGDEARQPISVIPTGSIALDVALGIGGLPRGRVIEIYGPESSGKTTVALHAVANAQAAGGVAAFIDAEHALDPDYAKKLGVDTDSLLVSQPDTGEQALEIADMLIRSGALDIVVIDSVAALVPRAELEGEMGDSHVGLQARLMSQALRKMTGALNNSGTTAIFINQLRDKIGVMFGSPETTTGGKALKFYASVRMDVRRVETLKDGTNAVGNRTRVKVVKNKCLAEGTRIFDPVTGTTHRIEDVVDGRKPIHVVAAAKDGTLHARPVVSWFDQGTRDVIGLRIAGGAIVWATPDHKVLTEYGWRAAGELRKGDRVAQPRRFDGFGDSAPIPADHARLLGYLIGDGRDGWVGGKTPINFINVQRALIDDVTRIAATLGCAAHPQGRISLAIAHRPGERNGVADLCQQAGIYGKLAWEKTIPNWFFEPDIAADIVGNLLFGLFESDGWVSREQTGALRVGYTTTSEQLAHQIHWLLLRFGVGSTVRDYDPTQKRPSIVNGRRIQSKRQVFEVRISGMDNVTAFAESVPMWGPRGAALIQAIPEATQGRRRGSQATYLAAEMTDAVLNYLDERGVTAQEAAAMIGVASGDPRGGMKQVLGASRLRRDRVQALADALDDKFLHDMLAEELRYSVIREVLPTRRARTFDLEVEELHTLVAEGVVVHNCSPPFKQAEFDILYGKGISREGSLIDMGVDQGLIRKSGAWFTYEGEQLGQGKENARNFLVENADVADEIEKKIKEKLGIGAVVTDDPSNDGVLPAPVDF
Arbovirus inh repeat = also measured in Arbovirus inh; calls as there; inhibition, %; measured here: 10K subset replicate screen; many hits read low in the repeat;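 first of two repeat runs on a subset; 0% = infected and 100% = uninfected wells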
Active calls of the source: *; u = inconclusive; x = no result given.

SMILES | Mtb growth | Mtb bLac sens | Arbovirus inh | YopH inh | RecA splice inh | others
COc1ccc(Cl)cc1N(CC(=O)N1CCCC1)S(C)(=O)=O | x | 3 | x | x | -0.4
Nc1nc(-c2ccc(Cl)cc2)nnc1-c1ccc(Br)cc1 | 1% | 6 | 5 | x | 0.8
CCOc1ccc2nc(SCC(=O)N3CCCCCC3)c(C#N)cc2c1 | 6% | 4 | -3 | -4 | -3.9
O=C(NC1C2CC3CC(C2)CC1C3)C1CCCCC1 (stereo unspecified) | x | 6 | x | x | -0.9
CC(C)CN1CCN=C1Nc1ccccc1 | x | -4 | x | x | -0.1
CC(=O)Nc1ccc(NC(=O)C2CCN(c3c(Cc4ccccc4)c(C)nc4ncnn34)CC2)cc1 | -6% | 5 | 5 | 14 | 0.2
N#C/C(=C\c1ccc(Cl)cc1)C(=O)Nc1cccnc1 | -8% | -1 | x | x | 5.4
CCN(C(=O)c1ccco1)c1nc(CC(=O)Nc2ccc(Cl)cc2)cs1 | 1% | 44 | -3 | -36 | x
COc1ccc2c(Cl)c(C(=O)NCCCn3ccnc3)sc2c1 | 3% | -3 | -2 | 0 | -1.9
Cc1cccc(C)c1NC(=O)COc1ccccc1C(=O)Nc1ccc(Br)cn1 | -5% | 2 | -6 | -24 | -0.5
Cc1cccc(-c2nn(-c3ccccc3)cc2C(=O)Nc2cccc(S(=O)(=O)NC3=NCCC3)c2)c1 | x | 2 | x | x | 3.1
Cc1ccc(COc2ccc(/C=N/NC(=O)c3nnn(-c4nonc4N)c3COc3ccc(F)cc3)cc2)cc1 | -8% | 6 | x | x | -2.4
CCOC(=O)C(NC(=O)CC)(Nc1nc2c(s1)CCCC2)C(F)(F)F (stereo unspecified) | -13% | 0 | -1 | 9 | -0.9
CCn1c2ccccc2c2cc(N)ccc21 | 0% | 72 | 0 | -29 | 3.8
CCn1c(Cc2ccccc2)nnc1SCC(=O)Nc1ccc(S(N)(=O)=O)cc1 | -2% | -2 | 3 | -6 | 0.0
COc1ccc([C@@H]2[C@@H]3C(=O)N(C(C)(C)C)C(=O)[C@@H]3[C@]3(Cc4ccccc4)C(=O)N(c4cccc(Br)c4)C(=O)N23)cc1 | x | -5 | x | x | 5.5
CN(C)S(=O)(=O)c1cc(NC(=O)CN2CCN(c3ccccc3)CC2)ccc1Cl | 4% | 2 | 4 | -29 | 1.3
Cc1ccc(C(=O)C(C)OC(=O)CN2C(=O)NC3(CCCC3)C2=O)cc1C (stereo unspecified) | x | -9 | x | x | -0.6
COc1cccc(C2NC(=O)c3ccccc3O2)c1OC (stereo unspecified) | -3% | -13 | 6 | -44 | 4.4
COCCn1nnnc1C(C(C)C)N(Cc1cccnc1)Cc1ccccc1Cl (stereo unspecified) | -8% | -7 | -4 | 20 | -5.4
CCn1c(SCC(=O)Nc2nc(-c3ccccc3)cs2)nnc1-c1ccccc1O | 2% | 1 | 17 | -29 | x
Cc1nnc(SC(C)C#N)n1-c1ccccc1 (stereo unspecified) | -1% | 0 | 10 | x | -1.9
CCN1CCN(S(=O)(=O)c2ccc(Cl)c(C(=O)Nc3nnc(C)s3)c2)CC1 | x | -5 | x | x | 0.2
COc1cc(OC)cc(-c2nc3ccccc3c(=O)o2)c1 | 75% | 98 | 14 | -8 | -0.3
COc1cc(/C=C/c2noc(-c3ccccc3O)n2)ccc1OC(C)=O | -6% | 66 | x | x | -1.8

Entries shown so far that have a Cl atom:
SMILES | Mtb growth | Mtb bLac sens | Arbovirus inh | YopH inh | RecA splice inh | others
COc1ccc(Cl)cc1N(CC(=O)N1CCCC1)S(C)(=O)=O | x | 3 | x | x | -0.4
Nc1nc(-c2ccc(Cl)cc2)nnc1-c1ccc(Br)cc1 | 1% | 6 | 5 | x | 0.8
N#C/C(=C\c1ccc(Cl)cc1)C(=O)Nc1cccnc1 | -8% | -1 | x | x | 5.4
CCN(C(=O)c1ccco1)c1nc(CC(=O)Nc2ccc(Cl)cc2)cs1 | 1% | 44 | -3 | -36 | x
COc1ccc2c(Cl)c(C(=O)NCCCn3ccnc3)sc2c1 | 3% | -3 | -2 | 0 | -1.9
CN(C)S(=O)(=O)c1cc(NC(=O)CN2CCN(c3ccccc3)CC2)ccc1Cl | 4% | 2 | 4 | -29 | 1.3
COCCn1nnnc1C(C(C)C)N(Cc1cccnc1)Cc1ccccc1Cl (stereo unspecified) | -8% | -7 | -4 | 20 | -5.4
CCN1CCN(S(=O)(=O)c2ccc(Cl)c(C(=O)Nc3nnc(C)s3)c2)CC1 | x | -5 | x | x | 0.2

Continuation.
SMILES | Mtb growth | Mtb bLac sens | Arbovirus inh | YopH inh | RecA splice inh | others
S=C(c1ccc(-c2ccc(Cl)c(Cl)c2)o1)N1CCOCC1 | 3% | -1 | 14 | -13 | 13
COc1ccc(S(=O)(=O)N2CCC(C(=O)Nc3cccc(Cl)c3)CC2)cc1OC | -5% | 6 | -2 | -38 | 2.9 | Arbovirus inh repeat=-1
COc1cccc(NC(=O)c2cccs2)c1 | 4% | 0 | 0 | -12 | 0.7
COc1ccc(/C=N/NC(=O)c2ccc[nH]2)cc1 | x | -5 | x | x | 1.0
Cc1onc(-c2ccccc2)c1C(=O)O/N=C(\N)c1ccc([N+](=O)[O-])o1 | u | 100 | x | x | -8.9
Cc1ccc(NC(=O)C2CCN(S(=O)(=O)c3ccc4c(c3)NC(=O)C(C)S4)CC2)c(C)c1 (stereo unspecified) | x | 67 | x | x | -0.6
COc1ccccc1N1CCN(C(=O)c2oc3cc(C)cc(C)c3c2C)CC1 | 1% | 47 | -27 | -7 | -2.7
Cc1cc(C)n2cc(COc3ccccc3)nc2n1 | -8% | 3 | -2 | -24 | -4.1
CN1C(=O)S/C(=C\c2ccccc2OCc2ccc(C(=O)O)cc2)C1=O | -10% | 13 | -1 | x | 7.1
CC(C)CN1CCN(Cc2ccc(C#CC(C)(C)O)cc2)CC1CCO (stereo unspecified) | 9% | -10 | 2 | x | -0.8
CCCS(=O)(=O)N1CCC(C(=O)NCCCN(C)Cc2ccccc2)CC1 | 2% | 0 | -2 | -18 | 0.6
Cc1ccc(S(=O)(=O)N2CCCCC2)cc1C(=O)OCC(=O)NC(=O)NC12CC3CC(CC(C3)C1)C2 | -1% | -10 | 2 | -34 | 3.9
CNCc1ccccc1OCc1ccc(F)cc1 | 8% | 5 | -1 | x | -2.7
COC(=O)C1=C(c2cc3ccccc3o2)C[C@@H]2CC[C@H]1N2C(=O)N1CCCC1 | 16% | -3 | x | x | 2.9
Cc1cccc(NC(=O)Cn2nnc(C(=O)NCc3cccs3)c2N)c1C | -6% | -5 | -5 | 1 | -0.7
COc1ccc(CCNC(=O)CCN2C(=O)C(C)Oc3ccc(C)cc32)cc1OC (stereo unspecified) | -1% | -5 | 6 | -20 | -0.6
Cc1c(O)c(S(=O)c2ccccc2)c(=O)n(-c2ccccc2)c1-c1ccccc1 (stereo unspecified) | -1% | -1 | 2 | -45 | 1.2
CCN(CC)c1nc(SCC(=O)O)nc(N(CC)CC)n1 | 2% | -16 | 11 | -61 | x
CSc1ccccc1NC(=O)CCn1c(=O)oc2ccccc21 | x | -17 | x | x | 1.3
COC(=O)C1C(=O)C2=C(CC1C)NC(C)=C(C(=O)OC(C)C)C2c1ccc(OC)c(O)c1 (stereo unspecified) | -4% | -14 | 3 | -41 | -2.6
O=C(Nc1cccc(S(=O)(=O)N2CCCC2)c1)c1ccc2c(c1)OCO2 | 0% | -3 | -2 | -25 | 0.0
CC(=O)Nc1ccc(S(=O)(=O)N2CCC(c3nc4ccc(C)cc4[nH]3)CC2)cc1 | 3% | 5 | -10 | -35 | -0.8 | Arbovirus inh repeat=-10
Cc1ccc(S(=O)(=O)N(CC(=O)N2CCc3ccccc3C2)c2cccc(Cl)c2)cc1 | 5% | -3 | -16 | -26 | 20
CCC(C)(C)c1nnc(NC(=O)C2CC(=O)N(CCc3ccc(F)cc3)C2)s1 (stereo unspecified) | x | -2 | x | x | 1.7
CN1CCC(OC(=O)Cc2ccc(Cl)cc2)CC1 | -2% | -3 | 2 | x | -0.2
(listing goes on)
SMILES | Mtb growth | Mtb bLac sens | Arbovirus inh | YopH inh | RecA splice inh | others
Cc1c(NC(=O)c2cccs2)cccc1-c1nc2ccccc2s1 | 0% | 5 | 17 | -24 | 1.3
Cn1ccnc1C(=O)c1ccc(S(=O)(=O)N2CCCC2)cc1 | 6% | 2 | 6 | x | -0.3
Nc1nc(N2CCN(c3ccccn3)CC2)nc2ccccc12 | x | 7 | x | x | -0.1
CCCCOc1ccc(/C=C/C2=CC(C)(C)NC(=S)N2)cc1OCC | 12% | 4 | -4 | x | 0.5
O=C(Nc1ccc(F)cc1)c1ccc2nc[nH]c2c1 | 3% | 1 | -3 | x | 1.2
COc1ccc(OCCSc2ncc(CO)n2C)cc1 | x | -4 | x | x | -0.6
COc1cccc(N2CCN(C(=S)Nc3cc(C)cc(C)c3)CC2)c1 | 2% | 9 | -13 | x | 2.7
O=C(CSc1nc(Nc2ccccc2)nc(N2CCOCC2)n1)Nc1ccc(Br)cc1F | x | 98 | x | x | 7.0
C#CCOCCOCCOCCNc1nc(N2CCN(C(=O)[C@H](CCC(=O)O)n3cc(C(N)CC(C)C)nn3)CC2)nc(N2CCN(C(=O)[C@H](Cc3ccc(O)cc3)n3cc(C(N)[C@H](C)CC)nn3)CC2)n1 (stereo partly specified) | x | -22 | 2 | x | 0.1
O=C1C2C3C=CC(CO)(O3)C2C(=O)N1c1ccccc1-c1ccccc1 (stereo unspecified) | -15% | 18 | -1 | -43 | x | Arbovirus inh repeat=-1
CN(C(=O)CN1C(=O)c2ccccc2S1(=O)=O)c1ccccc1C(=O)O | -14% | u | -1 | 10 | -1.8
N#CCCn1cc(/C=N/O)c(-c2ccc(-c3ccccc3)cc2)n1 | 2% | -1 | -16 | -1 | 2.9
CCn1c(SCC(=O)Nc2ccc(Cl)cc2)nnc1C1CC1 | x | 32 | 2 | -24 | 2.1 | Arbovirus inh repeat=2
O=C(NC(NC1CCS(=O)(=O)C1)C(=O)c1ccccc1)c1ccc(Cl)cc1 (stereo unspecified) | -3% | 1 | 11 | -35 | 0.5
CN1CN(C)c2cccc3cccc1c23 | -7% | -2 | -5 | -5 | -7.5
COc1ccc(C#Cc2c(-c3ccsc3)oc3ccc(-c4cc(OC)c(OC)c(OC)c4)cc23)cc1 | 0% | -4 | x | x | -1.5
S=C(c1ccc2c(c1)OCO2)N1CCCC1 | -20% | -7 | 3 | -6 | 2.3
COc1cccc(NC(=O)Cc2ccccc2)c1 | 1% | 0 | -10 | -29 | 0.2
N#Cc1cc(-c2ccccc2)oc1NC(=O)c1ccccc1 | -1% | -4 | -5 | -22 | -1.4
Cc1cc(C)c(C)c(S(=O)(=O)N2CCN(C)CC2)c1C | -1% | -4 | 17 | x | 0.9
COc1ccc(C)cc1NC(=S)N1CCN(c2ccccn2)CC1 | -3% | -1 | -6 | 1 | 2.1
Cn1c(=O)c2c(SCC(=O)N3CCOCC3)nc(C3CC3)nc2n(C)c1=O | -8% | -4 | 7 | 2 | 0.6
CCn1cc(C(=O)Nc2ccccc2)c(=O)c2ccc(C)nc21 | -2% | 11 | -4 | x | -4.0
CCSCc1nc(N)nc(NCCc2ccccc2)n1 | x | 0 | x | x | 1.0
CC(=O)C1=C(O)C(=O)N(c2ccc(Br)cn2)C1c1ccccc1[N+](=O)[O-] (stereo unspecified) | x | -5 | x | x | -0.2
(continued)
SMILES | Mtb growth | Mtb bLac sens | Arbovirus inh | YopH inh | RecA splice inh | others
COc1ccc(CC(=O)Nc2ccc(N3CCOCC3)cc2)cc1S(=O)(=O)N1CCOCC1 | 1% | -3 | x | x | -4.6
CCOC(=O)N1CCN(C(=O)c2cc(-c3ccc(OCC)cc3)nc3ccccc23)CC1 | 2% | 26 | -19 | -29 | 1.0
Cc1cc(C=C2C(=O)c3ccccc3C2=O)c(C)n1-c1ccccc1 | -1% | 58 | 3 | -2 | x
COCCNC(=O)c1cc(-c2cccs2)on1 | 2% | 1 | -10 | -19 | 0.3 | Arbovirus inh repeat=-6
C/C(=N\Nc1c([N+](=O)[O-])c(C)nn1C)c1ccc(F)cc1F | -1% | -2 | -5 | x | -0.3
COc1ccc(Cl)cc1NC(=S)NCc1cccnc1 | -2% | 1 | 5 | x | 0.2
On1nnc2c3ccccc3c3ccccc3c21 | -7% | 7 | 5 | x | -1.5
Cc1ccc(NC(=O)CN2c3cccc4cccc(c34)S2(=O)=O)cc1S(=O)(=O)N1CCOCC1 | 3% | -7 | 1 | -21 | 6.1
Cn1c(Cc2cccc3ccccc23)nnc1SCC(=O)N1CCN(c2cccc(Cl)c2)CC1 | 10% | 53 | -31 | -1 | 9.2
CCOC(=O)/C=C(\C)Nc1cc(C)nn1-c1ccccc1 | -6% | -1 | 1 | -24 | 1.3

The list is partial; count on the stated rates, not on these rows.
